High-throughput results as filed in PubChem.
RN4220 kill = kills Staphylococcus aureus RN4220; S. aureus RN4220 growth, OD600, 16 h; inhibition, % (no concentration beside the values); hit rate 0.33% among 330,000; AID 1259311;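 active means z-score of -3 or lower and OD600 up to 0.18 on both plates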;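 further: plate controls were untreated cells for no effect and reference antibiotic for full effect; stock transfer was 100 nL into about 80 µL; one replicate is shown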
BJeLR viability = BJeLR cell viability loss. AID 1554. inhibition, % (no concentration beside the values). BJeLR (HRASV12) viability, CellTiter-Glo ATP luminescence, 48 h; reference of the scale not given here. hit rate 0.17% among 300,000;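 active means replicate mean above 50%; inconclusive means above 50% but judged a plate artefact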;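 further: 50 nL library stock added to about 25 µL; numbers are from one replicate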
Mtb hypoxia inh = inhibitors of hypoxia-regulated fluorescent reporter in Mycobacterium tuberculosis; M. tuberculosis hypoxia-regulated fluorescent reporter, fluorescence; fluorescence inhibition, % (no concentration beside the values); hit rate 0.1% among 300,000; AID 1159583;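 active means 35 to 45% if threefold the growth effect, above 45% if 1.5-fold the growth effect; inactive means the rest, general growth blockers included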;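 further: wells of about 50 µL received 100 nL stock; 0% = vehicle wells and 100% = reference inhibitor wells; whole bacteria with a GFP reporter of the hypoxia response; strong numbers were not always called active; many hits fall short of the cut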
ugtP null kill = compounds lethal to S. aureus RN4220 ugtP deletion mutant. hit rate 0.54% among 330,000. growth inhibition, % (no concentration beside the values). OD600 growth, 16 h; some inactives read as strong as hits. AID 1259309;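 active means z-score under -3 and OD600 up to 0.15 on both plates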;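 further: plate controls were untreated wells for no effect and antibiotic for full effect; wells of about 80 µL received 100 nL stock; the first replicate is given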
Autofluor counter = counter-screen for toxin protease inhibitors: compound fluorescence. compound autofluorescence counterscreen, microsphere flow cytometry; stronger effect = higher value. fluorescence intensity (concentration not given with the values). hit rate 3.1% among 360,000. AID 624483;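 active means at least 3 SD above the mean of all compounds, about 16000 in these data; inconclusive means too few beads counted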;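 further: 100 nL of 1 mM stock went into each well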
PrP UTR inh = inhibition of PrP 5' UTR reporter expression; cell-based PrP 5' UTR mRNA reporter, plate reader; inhibition, % (no concentration beside the values); hit rate 0.35% among 340,000; AID 488862;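 active means every replicate at 50% or more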;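 further: 0 = median of the neutral control wells; tested in H4 reporter cells; numbers are from one replicate; inactives centre near -14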
Mtb hypoxia inh growth = recorded beside Mtb hypoxia inh, whose call it bears; growth inhibition, %; measured here: M. tuberculosis growth (absorbance);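 0% = vehicle and 100% = reference antibiotic; read after six days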
Numbers without * were called inactive; ? = inconclusive; / = not tested or not shown.

No.	Molecule	RN4220 kill	BJeLR viability	Mtb hypoxia inh	Mtb hypoxia inh growth
1	O=C(CSc1nnc(SCc2ccc(Cl)cc2)s1)c1ccc2c(c1)OCO2	/	-4	/	/
2	CC/C(=C\c1ccc(Cl)cc1)c1ccncc1	0.0	/	13	4
3	COc1ccc(C(=O)N2CCN(Cc3ccccc3)CC2)cc1[N+](=O)[O-]	0.9	1	7	-4
4	CCn1c(=O)c2cc(C(=O)N3CCOCC3)sc2c2ccccc21	42	-11	-14	10
5	Cc1cc(-c2ccc3ccccc3c2)n2ncnc2n1	11	-11	2	6
6	COc1ccc(C(=O)OCC(=O)Nc2cccc(C(C)=O)c2)c(OC)c1OC	-3.9	-8	-12	-2
7	Cc1nn(CC(=O)NC2CCC(C)CC2)c(=O)c(C#N)c1C (centres undefined)	4.8	-16	10	8
8	Cc1cc(C(=O)NN=C(Cc2ccccc2)Cc2ccccc2)c(C)o1	3.0	-7	-2	4
9	CC(C)(C)NC(=O)NC(=O)CN1CCCc2ccccc21	-4.1	/	-6	10
10	O=C(CCc1nnc2ccc(NCc3ccco3)nn12)Nc1ccc(F)cc1	0.9	-5	8	9

No.	ugtP null kill	Autofluor counter	PrP UTR inh
1	/	10929	-18
2	39	3865	-10
3	3	3257	-7
4	22	6690	-24
5	-1	4254	-5
6	-4	3374	-23
7	-1	5927	-33
8	-2	1964	-41
9	4	10193	1
10	16	6017	-11

(listing goes on)
No.	Molecule	RN4220 kill	BJeLR viability	Mtb hypoxia inh	Mtb hypoxia inh growth
11	CSc1ccccc1NC(=O)COC(=O)CCCOc1ccc(C)cc1	1.4	/	1	0
12	O=C(NC(=S)NCCC1=CCCCC1)c1cncc(Br)c1	9.4	-6	3	7
13	COc1ccccc1C(CNC(=O)CCNC(=O)c1ccccc1Cl)N1CCCC1 (centres undefined)	4.1	-6	6	4
14	O=C(Nc1ccc(O)c2c(=O)cc(-c3cccc(Cl)c3)oc12)c1ccc(F)cc1	5.3	9	10	4
15	CC(C(O)=C(C#N)c1nc2ccccc2n1C)N1C(=O)c2ccccc2C1=O (centres undefined)	-8.2	/	-3	-2
16	COc1ccc(C(=O)NCC2(c3ccccc3)CCOCC2)cc1[N+](=O)[O-]	3.8	-12	5	3
17	O=C1CC(c2cccnc2)=NN1c1ccccc1	0.4	-1	0	2
18	O=C(Nc1ccc(/C=C/c2nc3ccccc3o2)cc1)c1c(F)cccc1F	-8.3	-1	/	/
19	O=C(O)CC/C(=C\c1cc([N+](=O)[O-])ccc1Cl)c1nc2ccccc2s1	23	10	6	13
20	COC(=O)c1ccc(NC(=O)CSc2nn3c(=O)c(C)nnc3s2)cc1	1.9	-2	5	-2

No.	ugtP null kill	Autofluor counter	PrP UTR inh
11	4	/	-22
12	2	2555	-16
13	13	5991	-21
14	2	2811	-22
15	8	/	/
16	1	2436	3
17	2	2762	-17
18	-8	2718	-68
19	-16	2075	4
20	4	5310	-19

In a second layout: results already given
3) COc1ccc(C(=O)N2CCN(Cc3ccccc3)CC2)cc1[N+](=O)[O-]
  RN4220 kill: 0.9 | BJeLR viability: 1 | Mtb hypoxia inh: 7 | Mtb hypoxia inh growth: -4 | ugtP null kill: 3 | Autofluor counter: 3257 | PrP UTR inh: -7

4) CCn1c(=O)c2cc(C(=O)N3CCOCC3)sc2c2ccccc21
  RN4220 kill: 42 | BJeLR viability: -11 | Mtb hypoxia inh: -14 | Mtb hypoxia inh growth: 10 | ugtP null kill: 22 | Autofluor counter: 6690 | PrP UTR inh: -24

Other records follow.
No.	Molecule	RN4220 kill	BJeLR viability	Mtb hypoxia inh	Mtb hypoxia inh growth
21	CC(=O)Nc1ccc(N(C(=O)c2ccco2)C(C(=O)NC2CCCCC2)c2ccccc2)cc1 (centres undefined)	-3.4	9	-9	1
22	CC1(C)C(=O)OC(c2cc(Br)ccc2O)C(C)(C)C1=O (centres undefined)	2.8	-5	17	5
23	Cc1ccc(CN2CCC(CNC(=O)c3ccc(NC(=O)C4=CSCCO4)cc3)CC2)cc1	0.7	-3	-9	7
24	S=c1[nH]c2cc3c(cc2[nH]1)OCCO3	0.2	0	15	10
25	Cc1ccccc1-c1noc(-c2ccccc2C(=O)O)n1	0.7	-5	-14	3
26	CCOc1ccccc1C(=O)NN1CCOCC1	1.1	-3	4	1
27	COc1ccccc1NC(=O)C1CCCN(c2cnccn2)C1 (centres undefined)	1.2	-7	4	5
28	C#CCOCCOCCOCCNc1nc(N2CCN(C(=O)C(CCCCN)n3cc(CCCC)nn3)CC2)nc(N2CCN(C(=O)C(CCCCN)n3cc(CCCC)nn3)CC2)n1 (centres undefined)	-1.1	/	-9	14
29	O=C(NNc1nc(-c2ccc(F)cc2)cs1)c1ccccc1	-9.0	8	8	14
30	CC(=NCCCn1ccnc1)C1=C(O)c2ccccc2C1=O	1.5	1	2	6

No.	ugtP null kill	Autofluor counter	PrP UTR inh
21	-1	5450	-25
22	-9	2013	-16
23	3	4723	-17
24	-2	4092	-8
25	-4	4811	-5
26	5	4983	-26
27	6	5393	-12
28	0	/	/
29	20	4320	6
30	-1	10375	-23

The listing continues.
No.	Molecule	RN4220 kill	BJeLR viability	Mtb hypoxia inh	Mtb hypoxia inh growth
31	O=c1c2ccccc2[nH]c(=S)n1Cc1ccccc1	1.8	4	0	5
32	CC1CN=C(N(C)C)N1CCC1CCCCC1 (centres undefined)	3.9	/	12	14
33	Cc1ccc(NC(=O)CCCCCNS(=O)(=O)c2ccc(C)cc2)cc1	-3.8	3	4	0
34	CCOc1ccc(C(=O)Nc2c(C(=O)N3CCC(N4CCCCC4)CC3)oc3ccccc23)cc1	/	-4	/	/
35	O=C(Nc1cc(C2CC2)nn1-c1ccccc1)c1ccc(F)cc1	6.4	/	15	10
36	COc1ccc(NC(=O)CSCCc2ccccn2)cc1OC	4.5	-10	4	2
37	CC(=O)c1cccc(Nc2cc(C)nc3ccc(C)cc23)c1	0.2	-1	2	-5
38	COc1ccc(C)cc1NC(=O)CN1c2cccc3cccc(c23)S1(=O)=O	12	/	0	2
39	Cc1ccc(C)c(S(=O)(=O)C(C#N)c2nc3ccccc3nc2N2CCOCC2)c1 (centres undefined)	4.5	13	19	4
40	O=C1NCCCC1C(=O)NN=Cc1cc([N+](=O)[O-])ccc1O (centres undefined)	90*	/	2	-1

No.	ugtP null kill	Autofluor counter	PrP UTR inh
31	-16	3752	-3
32	-1	/	/
33	-2	2548	-22
34	/	7073	2
35	-1	4018	-17
36	13	3723	-16
37	6	7678	-3
38	-4	3066	-20
39	-5	?	-28
40	87	/	/

Next part.
No.	Molecule	RN4220 kill	BJeLR viability	Mtb hypoxia inh	Mtb hypoxia inh growth
41	COc1ccccc1NS(=O)(=O)c1ccc(C)c(NC(=O)C2CCCO2)c1 (centres undefined)	3.6	/	6	8
42	CC(C)(C)NC(=O)C(c1cccnc1)N(C(=O)c1ccc(Cl)nc1)C1CCCC1 (centres undefined)	-0.9	-10	12	2
43	COc1ccc(CN(Cc2ccccn2)C(=O)CN2C(=O)COc3ccccc32)cc1	3.0	5	7	8
44	N/C(COc1cccc(Cl)c1)=N\NS(=O)(=O)c1ccccc1	-3.1	-2	-6	4
45	CCOc1cc(C2C3=C(CC(C)(C)CC3=O)OC3=C2C(=O)CC(C)(C)C3)cc([N+](=O)[O-])c1O	5.8	-8	-14	12
46	CC1(C)CC(NC(=O)c2cccc(Cl)c2)CC(C)(C)N1	3.5	1	7	7
47	COc1ccc(CCNC(=O)COC(=O)/C=C/c2ccc(OCC#N)c(OC)c2)cc1	-0.2	8	11	8
48	CC(Sc1nc(N2CCOCC2)c2c(c1C#N)CC(C)(C)OC2)C(=O)O (centres undefined)	2.2	-10	4	-4
49	Cc1cc(C)n2nc(-c3ccco3)nc2n1	14	-2	3	0
50	Cc1ccnc(NS(=O)(=O)c2ccc(NS(=O)(=O)c3ccc([N+](=O)[O-])cc3)cc2)n1	1.7	-2	9	7

No.	ugtP null kill	Autofluor counter	PrP UTR inh
41	7	7764	-24
42	-1	3289	-4
43	3	10073	-12
44	-8	8983	10
45	-16	4137	-3
46	5	3579	-10
47	8	?	2
48	3	2911	-14
49	6	4856	-21
50	0	3250	-5

Remaining list, next part:
No.	Molecule	RN4220 kill	BJeLR viability	Mtb hypoxia inh	Mtb hypoxia inh growth
51	CC(=O)Nc1cccc(C(=O)/C=C/c2ccc(Br)cc2)c1	37	21	14	1
52	Cc1ccc(NS(=O)(=O)c2cc(C(=O)N3CCOCC3)ccc2C)cc1C	1.8	-2	/	/
53	Cc1ccc2c(c1)N(CC(=O)NC1CCCC1)C(=O)CO2	-2.4	1	4	6
54	Cc1cc(NC(=O)CSc2ccc3nnc(-c4cccs4)n3n2)no1	-0.7	-12	3	4
55	CCOC(=O)C1=C(C)C(c2ccccc2OC)NC(=O)N1 (centres undefined)	-0.3	-7	5	9
56	CC(=O)c1cccc(NC(=O)c2cc(C)nn2-c2ccccc2)c1	0.2	0	12	10
57	CN(C(=O)Cn1cc([N+](=O)[O-])ccc1=O)C1CCCCC1	1.0	/	7	-1
58	CCC(CO)Oc1cc(NC(=O)c2ccc(Cl)cc2)c2ncn(C(C)C)c2c1 (centres undefined)	3.5	/	-6	4
59	COc1cc(NC(=O)CSc2nnc3ccc(-c4cccnc4)nn23)cc(OC)c1	-1.4	-3	-4	1
60	Cc1ccc(C)c(NC(=S)NN=C2CCCCc3ccccc32)c1	4.0	/	13	-1

No.	ugtP null kill	Autofluor counter	PrP UTR inh
51	-2	1988	-3
52	-7	4272	-12
53	10	3609	-16
54	10	5656	-49
55	-3	4659	-8
56	7	3936	-38
57	2	3866	-10
58	-37	3028	1
59	2	6908	-2
60	58	/	/

Copied from the results shown (three entries):
No.	Molecule	RN4220 kill	BJeLR viability	Mtb hypoxia inh	Mtb hypoxia inh growth
53	Cc1ccc2c(c1)N(CC(=O)NC1CCCC1)C(=O)CO2	-2.4	1	4	6
54	Cc1cc(NC(=O)CSc2ccc3nnc(-c4cccs4)n3n2)no1	-0.7	-12	3	4
55	CCOC(=O)C1=C(C)C(c2ccccc2OC)NC(=O)N1 (centres undefined)	-0.3	-7	5	9

No.	ugtP null kill	Autofluor counter	PrP UTR inh
53	10	3609	-16
54	10	5656	-49
55	-3	4659	-8

Additional records
No.	Molecule	RN4220 kill	BJeLR viability	Mtb hypoxia inh	Mtb hypoxia inh growth
61	COc1cccc(CNC(=O)COC(=O)/C(C#N)=C/c2ccc(N(C)C)cc2)c1	4.7	/	0	-3
62	CC1CC(C)CN(C(=O)CCCn2c(=O)c3cccn3c3cccnc32)C1 (centres undefined)	0.2	2	-3	0
63	CC(C)(C)N1C(=O)c2ccc(C(=O)O)cc2C1=O	-8.3	0	9	14
64	O=C1c2ccccc2CC1(Cc1ccccc1)Cc1ccccc1	6.1	0	1	5
65	Cc1cc(C(=O)OCC(=O)Nc2ccc(F)cc2)c(C)o1	-1.2	-2	/	/
66	COc1ccc(CC(=O)N2CCN(c3ccc(F)cc3)CC2)cc1	-0.7	0	2	-11
67	COc1ccc(Nc2nnc(-c3ccc(O)cc3)c3ccccc23)cc1	7.2	1	8	5
68	O=C(CS(=O)(=O)c1ccc(F)cc1)N1CCOCC1	2.5	9	1	-7

No.	ugtP null kill	Autofluor counter	PrP UTR inh
61	5	4641	-3
62	0	5194	-9
63	1	3208	-21
64	4	3392	-7
65	2	5074	-14
66	6	4232	-22
67	-1	3268	1
68	6	4896	-20

Outcome played no part in choosing rows (roughly 4% active in at least one column).
